KAT2A inh = qHTS Assay for Inhibitors of GCN5L2; 390,000 compounds, 0.21% hits; GCN5L2 HAT assay, ThioGlo1 CoA-SH fluorescence; Potency, µM (highest dose often 58.9 µM), for inactives: at the top dose activity change, negative = inhibition, actives largely listed as inhibitors; active = well fitted inhibition curve with a large enough effect; inconclusive = small, poorly fitted or top-dose-only effect, or another doubt; inactive = no such curve, though single readings can be large or run the other way
Target sequence (Q92830 whole entry, looked up): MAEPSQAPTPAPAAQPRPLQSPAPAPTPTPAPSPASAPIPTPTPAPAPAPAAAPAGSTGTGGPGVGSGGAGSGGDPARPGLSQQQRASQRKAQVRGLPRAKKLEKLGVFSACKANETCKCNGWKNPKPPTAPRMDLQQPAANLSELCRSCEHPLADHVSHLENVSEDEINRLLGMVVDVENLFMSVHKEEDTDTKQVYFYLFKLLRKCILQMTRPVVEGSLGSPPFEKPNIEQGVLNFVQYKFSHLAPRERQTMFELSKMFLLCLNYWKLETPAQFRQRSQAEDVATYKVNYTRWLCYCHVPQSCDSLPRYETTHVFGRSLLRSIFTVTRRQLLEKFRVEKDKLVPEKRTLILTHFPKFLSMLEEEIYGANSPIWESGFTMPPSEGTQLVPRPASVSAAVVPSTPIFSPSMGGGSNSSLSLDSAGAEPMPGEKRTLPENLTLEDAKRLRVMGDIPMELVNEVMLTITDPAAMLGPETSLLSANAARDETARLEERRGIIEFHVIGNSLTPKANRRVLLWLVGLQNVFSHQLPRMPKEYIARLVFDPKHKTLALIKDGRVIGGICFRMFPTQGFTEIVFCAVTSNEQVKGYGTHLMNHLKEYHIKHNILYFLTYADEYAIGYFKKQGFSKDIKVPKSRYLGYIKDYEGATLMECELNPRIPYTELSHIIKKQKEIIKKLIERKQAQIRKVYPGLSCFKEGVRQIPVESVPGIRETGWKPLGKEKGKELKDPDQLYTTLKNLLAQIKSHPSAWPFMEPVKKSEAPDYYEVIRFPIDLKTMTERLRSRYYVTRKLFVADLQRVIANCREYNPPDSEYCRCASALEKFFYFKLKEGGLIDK
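Free CoA generated was detected with ThioGlo1 (50uM) fluorescence at Ex340nm/Em540nm, read immediately and after 20 min at room temperature. Enzyme, 20 nM in HEPES pH 7.5 buffer, saw compounds 15 min before adding 75uM H3(1-25) peptide and 70uM acetyl-CoA.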
* hit, by the source's call; ? = inconclusive; & = joins results of further samples; [ ] = dose if it differs, or a comment. % is scaled to controls: 0 for no effect and ±100 for the full control effect; potency is read from the fitted curve at half-maximal effect. An excerpt, and most or all hits are left out here.

KAT2A inh | SMILES
-8.1% | Cc1cc(C)c(NS(=O)(=O)c2ccc3c(c2)CC(C)N3C(=O)C2CCC2)c(C)c1 (centres undefined)
-5.1% | CCc1ccc(N(CC(=O)NC2CCCCC2)S(=O)(=O)c2c(C)noc2C)cc1
-3.3% | COc1cccc(NC(=O)CNC(=O)c2ccc(OC)c(OC)c2)c1
-16.0% | CCCCS(=O)(=O)c1oc(-c2ccc(F)cc2)nc1S(=O)(=O)c1ccccc1
20.6% | COC(=O)c1cc(NS(=O)(=O)c2ccc(NCc3cccnc3)c([N+](=O)[O-])c2)cc(C(=O)OC)c1
-3.1% | CC1(C)Cc2nc(-c3ccccc3)nc(NNC(=O)c3ccco3)c2CO1
-2.6% | CCn1c(SCC(=O)Nc2ccc(C)cc2Br)nnc1-c1nonc1NC(C)=O
-5.8% | COc1ccc(/C=C(\NC(=O)/C=C/c2ccco2)C(=O)NCCc2nc3ccccc3[nH]2)cc1
-4.4% | CCCCNc1cc(=O)n(C)c(=O)[nH]1
-1.8% | CCOC(=O)c1[nH]c(C)c(C(=O)OCCOc2cccc(C)c2)c1C
-4.0% | COC(=O)[C@]1(C)N[C@H](CN(C)C(=O)NC(C)C)[C@@H]2C(=O)N(C)C(=O)[C@@H]21
-12.2% | CC(CCc1ccco1)NC(=O)c1cccc2c1C(=O)N(C1CCCCC1)C2 (centres undefined)
3.0% | CCCn1nnnc1NCc1cccc(OC)c1
1.8% | Cc1ccccc1-c1nc(CN2CCC(C(=O)NC3CCCCC3)CC2)c(C)o1
-6.8% | O=C(NCc1cccc2[nH]ccc12)C1CCC(=O)N(CCc2ccc(Cl)cc2)C1 (centres undefined)
1.5% | NS(=O)(=O)c1ccc(CNC(=O)c2ccc3c(c2)OCO3)cc1
0.6% | Cc1ccc(NC(=O)CNS(=O)(=O)c2ccc(F)cc2)cc1C
-4.0% | C=CCn1c(=O)c(C(=O)Nc2ccccc2S(N)(=O)=O)c(O)c2ccccc21
-2.7% | Cn1cc(S(=O)(=O)c2ccc(Cl)cc2)c(=O)c2cc(F)c(N3CCOCC3)cc21
-17.6% | CC(C)CC(NC(=O)C(NC(=O)C1CCC(=O)N1C(=O)OCc1ccccc1)C(C)C)C(=O)N1CCCC1C(N)=O (centres undefined)

(listing goes on)
KAT2A inh | SMILES
? | CCCCC1CCC(C(=O)N(CC(C)C)c2c(N)n(Cc3ccccc3)c(=O)[nH]c2=O)CC1 (centres undefined)
1.7% | CN(CC(=O)Nc1ccc(Cl)cc1)C(=O)COc1ncnc2ccccc12
-1.4% | COc1ccccc1N1CCN(CCCCOc2ccc(F)cc2)CC1
-7.4% | Cc1ccc(NC(=O)CN(C)C(=O)CSc2nnc(N)s2)cc1
-2.8% | CCc1ccc(-c2nn(-c3cc(Cl)ccc3[N+](=O)[O-])c(=O)c3ccccc23)cc1
-8.0% | COc1cccc(CN2CC(C(=O)NCCn3ccc(C)n3)CCC2=O)c1 (centres undefined)
1.9% | O=C(O)CNC(=S)N(Cc1cccs1)C1CCCCC1
-4.9% | COc1cccc(Nc2cc(C)nc3nc(C)nn23)c1
-3.7% | COc1ccc(OC)c(CCNC(=O)CC2Oc3ccc(C)cc3NC2=O)c1 (centres undefined)
-1.4% | CC12CN(Cc3ccccc3)CC(C)(CN(Cc3ccccc3)C1)C2=O
-15.0% | CC(C)(C)c1ccc(CN(Cc2ccccc2)C(c2ccccn2)c2nnnn2C(C)(C)C)cc1 (centres undefined)
-10.0% | CC1(C)Cc2nc(N3CCCC3)c(C#N)cc2CO1
-11.2% | O=C(c1ccc(-c2ccccc2Cl)o1)N1CCN(S(=O)(=O)c2cccs2)CC1
-11.4% | O=C(Nc1cccc(C(F)(F)F)c1)c1scc2c1OCCO2
-4.1%[0.501 µM] | N=c1sccn1CC(=O)N1CCc2ccccc21
-3.4% | N=c1c(C(=O)NC2CCCCC2)cc2c(=O)n3ccccc3nc2n1Cc1ccc(F)cc1
1.2% | CC(C)NC(=S)Nc1ccc(Oc2ccccc2)cc1
-3.3% | O=C(Nc1cc(C(F)(F)F)ccc1Cl)C(=O)N1CCCCC1
-8.9% | Cc1sc(NC(=O)Cc2ccc3c(c2)OCO3)nc1-c1ccc2c(c1)CCN2C(=O)c1ccc(F)cc1
11.4% | CCOc1ccc(N2CC(C(=O)NCCN3C(=O)S/C(=C\c4ccc(OC)cc4)C3=O)CC2=O)cc1 (centres undefined)

(listing goes on)
KAT2A inh | SMILES
-6.8% | CN(C)C(=O)c1cn(N(C)c2ncc(C(F)(F)F)cc2Cl)c(=O)c2ccccc12
-9.2% | NS(=O)(=O)c1ccc(NC(=S)Nc2ccc(S(=O)(=O)N3CCCC3)cc2)cc1
-19.3% | CCN1CCCC1CNc1ncnc2c1[nH]c1ccc(F)cc12 (centres undefined)
-5.8% | CC1CCCCN1S(=O)(=O)c1ccc(NC(=O)c2cccc(-n3cnnn3)c2)cc1 (centres undefined)
-4.8% | CC(C)(C)c1ccc(OCCOCCn2cnc3ccccc3c2=O)cc1
-19.3% | O=C(CCNS(=O)(=O)c1ccc2[nH]c(=O)oc2c1)Nc1ccccc1
1.3% | O=C(c1ccccc1)c1nn(-c2ccccc2)c2nnc(Cc3ccccc3)c(=O)n12
-10.3% | O=C1CC(O)(C(F)(F)F)Oc2c1ccc1ccccc21 (centres undefined)
-4.1% | CCOC(=O)[C@H]1[C@H]2COc3ccc(C)cc3[C@@H]2N2C(=O)CN(Cc3ccc(OC)cc3)C(=O)[C@@]12C
-7.6% | CCc1ccc(-c2cc(C)no2)cc1S(=O)(=O)NCCc1ccc(OC)c(OC)c1
-5.0% | CCN(CC)C(=O)CSc1ccc(C(F)(F)F)cc1[N+](=O)[O-]
-3.8% | Cc1cc(NC(=O)CCC(=O)N(Cc2ccc(F)cc2)C(C(=O)NC2CCCC2)c2ccco2)no1 (centres undefined)
-7.5% | COc1ccc(Cn2c(C(=O)O)c(CNCCc3ccco3)c3ccc(C)cc32)cc1
-9.9% | Cc1ccc(NC(=O)CN2C(=O)COc3ccc(S(=O)(=O)N4CCCCCC4)cc32)c(C)c1
-1.5% | O=C(NCC1CCCO1)C1c2ccccc2C(=O)N1C1CCCCCC1 (centres undefined)
-4.3% | CCCC(=O)NCCCc1nc2ccccc2n1CCC
-2.8% | CC(C)(C)NC(=O)c1cccc2c1C(=O)c1ccccc1-2
-1.3% | Cc1ccc(NC(=O)/C(CN(C)C)=N\O)cc1
1.2% | CC(=O)Nc1ccc(S(=O)(=O)Nc2ccc3nc(C)sc3c2)cc1
-6.3% | O=C(NCCCN1CCOCC1)c1ccc(-c2ccc(Cl)cc2)o1

(further entries)
KAT2A inh | SMILES
8.3% | CC(C)(C)NC(=O)NC(=O)CN1CCN(S(=O)(=O)c2ccc3c(c2)OCCO3)CC1
-15.1% | Clc1ccc2c(c1)c1ccccc1n2CN1CCOCC1
-0.8% | COc1ccc(-c2nc(CS(=O)(=O)CC(=O)NCCCN3CCN(C)CC3)c(C)o2)cc1
-2.1% | O=C(NCCC1=CCCCC1)C1CCCN(S(=O)(=O)c2ccccc2)C1 (centres undefined)
-5.7% | CC1(C)CC(=O)c2c(oc3ccc(NS(=O)(=O)c4cccc5cccnc45)cc23)C1
2.1% | COc1cc(NS(=O)(=O)c2ccc(NC(=O)c3ccc(Cl)cc3Cl)cc2)ncn1
1.6% | CCC(C)(C(=O)NC1CCCCC1)N(C(=O)Cc1cccs1)c1ccccc1 (centres undefined)
-10.5% | COC(=O)C1=C(C)N=C2SC(C)C(=O)N2C1c1cccc(F)c1 (centres undefined)
-5.4% | CCc1nc2ccc(C(=O)Nc3cccc(C(C)=O)c3)cc2nc1CC
-8.0% | CCn1c(COc2ccc3c(c2)CCCC3)nnc1SCC(=O)Nc1nccs1
-1.8% | COc1ccc(C=O)cc1CSc1nnc(COc2cccc3cccnc23)o1
-12.5% | O=C(CN1CCN(S(=O)(=O)c2ccc3ccccc3c2)CC1)N1CCc2ccccc2C1
-4.4% | O=c1cc(-c2ccsc2)oc2ccccc12
-1.6% | CSCCC(NC(=O)c1ccccc1)C(=O)O (centres undefined)
-5.5% | CCCN(CC(=O)Nc1ccc(C(N)=O)cc1)CC(=O)Nc1cc(Cl)ccc1Cl
-9.5% | C[C@H](CO)N1C[C@H](C)[C@@H](CN(C)C(=O)NC2CCCCC2)Oc2ccc(NC(=O)CCC(F)(F)F)cc2C1=O
-4.3% | CCCCc1nc(SCC(=O)Nc2cc(C)on2)n[nH]1
-4.3% | COc1ccc(Cl)cc1NC(=O)CN(C)CC(=O)Nc1ccccc1N1CCOCC1
41.4%[activator] | COc1ccc(NC(=O)CSC2=NCCN2)cc1
-2.1% | Cn1nnc(C(O)CNCc2ccc(Cl)cc2)n1 (centres undefined)

An excerpt of these results, with each value named.
> Clc1ccc2c(c1)c1ccccc1n2CN1CCOCC1
  KAT2A inh: -15.1%

> COc1ccc(-c2nc(CS(=O)(=O)CC(=O)NCCCN3CCN(C)CC3)c(C)o2)cc1
  KAT2A inh: -0.8%

> O=C(NCCC1=CCCCC1)C1CCCN(S(=O)(=O)c2ccccc2)C1 (centres undefined)
  KAT2A inh: -2.1%

> CC1(C)CC(=O)c2c(oc3ccc(NS(=O)(=O)c4cccc5cccnc45)cc23)C1
  KAT2A inh: -5.7%

More entries
KAT2A inh | SMILES
-1.3% | Cc1cc(C)n(CCNS(=O)(=O)c2ccc(Cl)cc2)n1
1.7% | O=C(CN1C(=O)C2CC=CCC2C1=O)Nc1ccc(S(=O)(=O)NC2=NCCCCC2)cc1 (centres undefined)
-1.3% | O=C(NCCC(c1ccccc1)c1ccccc1)c1cccs1
-2.5% | Cc1ccc2nc(CN3CCN(S(=O)(=O)c4ccc(F)cc4)CC3)oc2c1
-2.4% | COc1ccccc1CNS(=O)(=O)c1cc(C(=O)NCc2ccccn2)c(Cl)cc1Cl
-6.8% | Cc1ccc(C(=O)Oc2coc(CSc3nnc(NC(=O)C4CC4)s3)cc2=O)cc1
2.2% | CCSc1nc(=S)n(Cc2ccccc2)c(C)c1C(C)=O
-20.1%&-14.5% | O=C(Cn1c(=O)oc2cc(S(=O)(=O)N3CCCC3)ccc21)NCc1ccc(F)cc1
-5.0% | COc1cccc(NC(=O)COC(=O)c2ccc3ccccc3n2)c1
-0.6% | Cc1cc(F)ccc1S(=O)(=O)N1CCC2(CC1)OCCN2S(=O)(=O)c1cccs1
2.7% | CCCCc1nc2sc3c(c2c(=O)[nH]1)CCC3
-7.3% | O=C(c1noc2c1CCCCC2)N1CCOCC1
-0.9% | CCOC(=O)CN(C(=O)CSc1nnc(CNc2ccc(F)cc2)o1)c1ccccc1
-3.9% | CCOc1c(C(N)=O)cc([N+](=O)[O-])cc1[N+](=O)[O-]
-12.3% | COc1ccc(Cl)cc1NC(=O)Cn1cc(S(=O)(=O)Cc2cccc(Cl)c2)c2ccccc21
-0.7% | Cn1c(CCN2CCCCC2)nc2cc(NC(=O)NC3CCCCC3)ccc21
-9.6% | CCC(C(=O)NCc1ccco1)N(C(=O)CNS(=O)(=O)c1ccccc1)c1ccc(OC)cc1 (centres undefined)
2.5% | COc1cc(C)ccc1OCc1cc(C(=O)N2CCN(C3CCCCC3)CC2)no1
-0.7% | Cc1cc(C(=O)N2CCC(CO)(Cc3cccc(C(F)(F)F)c3)CC2)n[nH]1
17.4% | CCCN(C(=S)Nc1ccccc1)C1CCS(=O)(=O)C1 (centres undefined)

Some of the entries so far, with bars between the fields:
mol | KAT2A inh
CCCN(CC(=O)Nc1ccc(C(N)=O)cc1)CC(=O)Nc1cc(Cl)ccc1Cl | -5.5%
Cc1ccc2nc(CN3CCN(S(=O)(=O)c4ccc(F)cc4)CC3)oc2c1 | -2.5%
CSCCC(NC(=O)c1ccccc1)C(=O)O (centres undefined) | -1.6%
CC(C)(C)c1ccc(CN(Cc2ccccc2)C(c2ccccn2)c2nnnn2C(C)(C)C)cc1 (centres undefined) | -15.0%
CC(=O)Nc1ccc(S(=O)(=O)Nc2ccc3nc(C)sc3c2)cc1 | 1.2%
O=C(NCC1CCCO1)C1c2ccccc2C(=O)N1C1CCCCCC1 (centres undefined) | -1.5%
Cc1ccc(NC(=O)CN(C)C(=O)CSc2nnc(N)s2)cc1 | -7.4%

Continued.
KAT2A inh | SMILES
1.7% | C/C=C(/C)C(=O)O[C@@H]1c2c(ccc3ccc(=O)oc23)OC(C)(C)[C@@H]1OC(C)=O
-2.3% | CC(C)=CCOc1ccc2ccc(=O)oc2c1
-3.0% | COc1ccc(S(=O)(=O)N2CC(C)N(C(=O)N(C)C)C2C(C)C)cc1 (centres undefined)
-1.2% | COC(=O)c1sccc1-n1cc(C#N)c(=O)n(C)c1=O
-2.6% | CCCn1c(SCC(=O)Nc2c(C)cccc2C)nnc1C(C)C
-0.7% | O=C(COC(=O)CNC(=O)c1ccc(Cl)c([N+](=O)[O-])c1)NCC1CCCO1 (centres undefined)
-19.0% | CCOC(=O)c1cnn(-c2ccccc2)c1-n1cccc1C(=O)C(=O)N(CC)CC
1.1% | CC(=O)Nc1ccc(S(=O)(=O)NNC(=O)NC23CC4CC(CC(C4)C2)C3)cc1
2.0% | Clc1cccc(-n2ncc3c(NCCCc4ccccc4)ncnc32)c1
-13.1% | Cc1ccc(Cl)cc1N1CCN(C(=O)c2cccc3c(=O)c(C)c(-c4ccccc4)oc23)CC1
-26.2% | O=C(c1cc(COc2cccc(C(F)(F)F)c2)on1)N1CCC(c2ccncc2)CC1
-1.6% | COC(=O)CCN(C(=O)C1C2CC3CC(C2)CC1C3)c1ccccn1 (centres undefined)
0.0% | Cn1c(CNC(=O)CNS(=O)(=O)c2ccc(Cl)cc2)cc(=O)n(C)c1=O

Screening data: PubChem, National Center for Advancing Translational Sciences (NCATS)
